ClpP mod: qHTS Assay for Activators of ClpP | ATP-dependent Clp protease proteolytic subunit (Bacillus subtilis (strain 168)), P80244 | AID 651965, 2013 | actives 1.9% (n = 340,000) | Potency, µM (series often up to 57.5 µM), for inactives: top-dose activity change, negative = active | purified B. subtilis ClpP, FRET peptide cleavage, 20 min; active = well fitted falling curve with a large enough effect; inconclusive = small, poorly fitted or top-dose-only effect; inactive = no such curve, though single readings can be large or run the other way; also: potency is read from the fitted curve at half-maximal effect; the source files actives as falling curves though it sought activators and does not explain the sign; nearly all actives have a fitted effect of over 65% in size; many hits overshoot -100%
Target sequence (P80244 whole entry, looked up): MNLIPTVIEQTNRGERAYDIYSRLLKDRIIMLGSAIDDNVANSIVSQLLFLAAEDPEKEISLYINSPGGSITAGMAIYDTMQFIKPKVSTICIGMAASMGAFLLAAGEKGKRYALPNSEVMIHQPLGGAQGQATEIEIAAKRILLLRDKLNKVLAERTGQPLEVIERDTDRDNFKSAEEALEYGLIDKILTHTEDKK
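Buffer: 100 mM Tris/HCl pH8, 100 mM KCl, 0.05% low protease BSA, 2.5% glycerol, 0.01% Tween-20. ClpP 10 microg/mL final; 20 min RT; delta FRET normalized to ADEP and DMSO controls.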
Menin MLL FP FL: qHTS Assay for Inhibitors Targeting the Menin-MLL Interaction in MLL Related Leukemias: Competition With Fluorescein Labeled MLL-derived Peptide; 290,000 tested, under 10 active; AID 1766, 2009; Fluorescence polarization, fluorescein-MLL peptide displacement from menin; FP activity change, % at 61.4 µM; inconclusive = falling polarisation curve, or a change in total fluorescence; inactive = total fluorescence flat and polarisation flat or rising; no compound was filed as active; the % refers to the polarisation; negative = inhibition;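 also: % of control where 0% means no effect; inhibitors lower the polarisation; unlabelled MLL peptide was the positive control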
TRPV1 potentiator: HTS Assay for Compounds that Act as Potentiators of the Vanilloid Receptor 1. Transient receptor potential cation channel subfamily V member 1 (Homo sapiens), Q8NER1. TRPV1-expressing cells, Fluo-8 calcium influx, capsaicin EC20 potentiation; host cell line not named in the record; control for the full effect not named in the record. AID 540277, 2011. potentiation, % at 8.33 µM. actives 0.02% (n = 320,000); active means potentiation above 80%; inconclusive means 30% to 80%; inactive means below 30%; also: 0% is about no effect
Target sequence (Q8NER1 whole entry, looked up): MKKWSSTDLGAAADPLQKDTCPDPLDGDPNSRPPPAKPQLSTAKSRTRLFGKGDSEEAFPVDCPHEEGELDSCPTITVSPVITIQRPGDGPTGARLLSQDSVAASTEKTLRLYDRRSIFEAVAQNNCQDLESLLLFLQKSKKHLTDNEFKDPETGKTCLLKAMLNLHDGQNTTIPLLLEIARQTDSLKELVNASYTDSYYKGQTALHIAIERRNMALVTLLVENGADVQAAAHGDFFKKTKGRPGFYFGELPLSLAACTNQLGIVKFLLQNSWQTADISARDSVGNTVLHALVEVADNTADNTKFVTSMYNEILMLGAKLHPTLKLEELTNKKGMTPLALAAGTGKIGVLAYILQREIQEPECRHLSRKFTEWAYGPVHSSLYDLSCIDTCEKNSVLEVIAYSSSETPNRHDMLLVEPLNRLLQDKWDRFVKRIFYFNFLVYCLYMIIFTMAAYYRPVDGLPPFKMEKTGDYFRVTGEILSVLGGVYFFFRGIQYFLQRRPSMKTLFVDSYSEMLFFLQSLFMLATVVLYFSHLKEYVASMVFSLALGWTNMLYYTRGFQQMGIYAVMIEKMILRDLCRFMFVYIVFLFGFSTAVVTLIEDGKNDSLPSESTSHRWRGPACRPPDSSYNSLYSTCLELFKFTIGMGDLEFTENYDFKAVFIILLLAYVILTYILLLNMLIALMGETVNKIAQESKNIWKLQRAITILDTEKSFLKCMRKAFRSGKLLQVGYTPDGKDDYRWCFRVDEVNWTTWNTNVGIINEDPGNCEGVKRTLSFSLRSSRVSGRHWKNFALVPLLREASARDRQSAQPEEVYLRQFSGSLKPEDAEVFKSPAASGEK
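Fluo-8 calcium influx in TRPV1-expressing cells, kinetic read (ex 480/em 520 nm). Compound added and read 3 min for agonist activity, followed by capsaicin at EC20 final and 2 min further read for enhancement.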
gsp antagonist: qHTS for Antagonists of gsp, the Etiologic Mutation Responsible for Fibrous Dysplasia/McCune-Albright Syndrome: qHTS; Potency, µM (top dose mostly 76.9 µM), inactives show at the highest dose activity change, negative = inhibition, actives largely listed as inhibitors; gsp-mutant cells, cAMP HTRF, 30 min; control for the full effect not named in the record; actives 0.4% (n = 340,000); active = falling curve of any shape with a large fitted effect; inconclusive = falling curve, mostly with a smaller effect; inactive = flat or rising curve; cell line not stated here;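 also: intracellular cAMP measured with PDE inhibitor Ro 20-1724 present during compound exposure; potency is read from the fitted curve at half-maximal effect; % is scaled to controls: 0 for no effect and ±100 for the full control effect; nearly all actives have a fitted effect of over 65% in size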
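Cells, 2000/well, grown 16–24 h in DMEM 10% FBS with 0.5 mg/ml G418, then compounds plus […] (300 uM addition stock), 30 min at 37C. cAMP read by HTRF (cAMP-d2 and anti-cAMP antibody-K in lysis buffer) after 30 min RT.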
gsp ag: qHTS for Agonist of gsp, the Etiologic Mutation Responsible for Fibrous Dysplasia/McCune-Albright Syndrome: qHTS; AID 624287, 2012; gsp mutant cells, cAMP HTRF, 30 min; control for the full effect not named in the record; Potency, µM (doses to about 76.9 µM), inactives show at the top dose activation (cAMP increase), hits mostly activators; actives 0.13% (n = 340,000); active = well fitted activation curve with a large enough effect; inconclusive = small, poorly fitted or top-dose-only effect, or another doubt; inactive = no such curve, though single readings can be large or run the other way; cell line not stated here;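 also: phosphodiesterase inhibitor Ro 20-1724 added with compounds to block cAMP breakdown; potency is read from the fitted curve at half-maximal effect; nearly all actives have a fitted effect of over 60% in size; about a fifth of the inactives were tested at one dose only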
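Cells stably selected in G418 were plated at 2000/well, grown 16-24 hr, then given compounds in DMSO with the PDE inhibitor […] (300 uM solution added) for 30 min at 37C; cAMP was read by HTRF.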
D2 PAM: Beta-Arrestin HTS for Positive Allosteric Modulators of the Human D2 Dopamine Receptor: Potentiators | D(2) dopamine receptor (Homo sapiens), P14416 | DiscoveRx D2 beta-arrestin cells, luminescence, 90 min; 100% = 57 uM dopamine signal | potentiation, % (test concentration not listed) | actives 0.23% (n = 360,000); active = potentiation of 50% or more; inconclusive = 30% to 50%; inactive = 30% or less;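 also: compound concentration not given in the record; tested on top of an EC20 dose of dopamine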
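D2 cells co-treated with compound plus 50 nM dopamine (EC20) for 90 min at 37 deg C to detect potentiation. Beta-arrestin recruitment was read as enzyme-fragment luminescence after 1 h at ambient temperature. Full response was set by 57 uM dopamine.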
Sfp inh: qHTS Assay for Inhibitors of Bacillus subtilis Sfp phosphopantetheinyl transferase (PPTase); 4'-phosphopantetheinyl transferase ffp (Bacillus subtilis), Q9F4F7; Biochemical Sfp PPTase activity, qHTS; Potency, µM, without a hit: max response, negative = inhibition, hits mostly inhibitors; actives 3.5% (n = 310,000); AID 1490, 2009; active = well fitted inhibition curve with a large enough effect; inconclusive = small, poorly fitted or top-dose-only effect, or another doubt; inactive = no such curve, though single readings can be large or run the other way;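 also: the enzyme is Sfp with the accession as filed and its product quenches rhodamine fluorescence; potency is read from the fitted curve at half-maximal effect; 0% = enzyme reaction without inhibitor and -100% = no enzyme wells; top concentration of the series not given in the record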
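After 15 min at room temperature with compound, 15 nM Sfp received 5 uM rhodamine-CoA plus 12.5 uM BHQ-2-ybbR (50 mM Hepes pH 7.6, 10 mM MgCl2). Rate came from the fluorescence difference over 30 min, ex 525/em 598 nm.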
Starred values were filed as active, the others as inactive; u = inconclusive; x = not tested or not shown; & = joins results of further samples; [ ] = remark or other dose.

Short keys: A = ClpP mod; B = Menin MLL FP FL; C = TRPV1 potentiator; D = gsp antagonist; E = gsp ag; F = D2 PAM; G = Sfp inh
COc1cccc(C2CC(c3cccs3)=NN2C(=O)CSc2nc3ccccc3s2)c1OC (stereo unspecified)
  A: 28µM*; B: 6.4; C: 1; D: 0%; E: 3%; F: -11; G: -4%
COc1ccc(-c2cc(=O)oc3cc(O)ccc23)cc1
  A: x; B: 0.7; C: -8; D: -7%; E: 1%[15.4 µM]; F: 19; G: 3%
Cc1cc(C)c(NC(=O)CNC(=O)[C@@H]2CCCN2C(=O)c2cccs2)c(C)c1
  A: 0.1%; B: x; C: 3; D: 9%; E: 22%; F: -1; G: x
CN(C(=O)CN1C(=O)NC(c2ccccc2)(c2ccccc2)C1=O)C1CCS(=O)(=O)C1 (stereo unspecified)
  A: 2.5%; B: x; C: -8; D: -4%; E: 1%; F: -1; G: x
COc1ccccc1C(=O)CN1C(=O)NC2(CCc3ccccc32)C1=O (stereo unspecified)
  A: -8.6%; B: x; C: 9; D: 12%; E: -6%; F: -3; G: x
O=C(CSc1nnc(-c2ccc(OC(F)F)cc2)o1)NC(=O)NCc1ccco1
  A: -1.2%; B: 1.5; C: -9; D: -6%; E: -9%; F: 25; G: 6%
O=C(Nc1cccc([N+](=O)[O-])c1)Nc1ccc2c(c1)OCCO2
  A: x; B: -0.9; C: -11; D: x; E: 1%[15.4 µM]; F: -24; G: -1%
CCCCC(=O)Oc1cc(C)[nH]c(=O)c1[N+](=O)[O-]
  A: x; B: 3.0; C: u; D: 10%; E: -6%; F: 9; G: -9%
O=C1CC(c2ccccc2)n2ncnc2N1 (stereo unspecified)
  A: 0.0%; B: 0.2; C: 4; D: -7%; E: 20%; F: -3; G: -1%
O=C(NCc1cccnc1)C1CC(c2cccc(Br)c2)=NO1 (stereo unspecified)
  A: -1.5%; B: -1.9; C: -4; D: 6%; E: 14%; F: -4; G: 11%
Cc1ccc(CN2C(=O)c3ccccc3C2C(=O)NCC2CCCO2)cc1 (stereo unspecified)
  A: 1.2%; B: -1.0; C: 30; D: -8%; E: 14%; F: -5; G: -7%
COC(C)(C)[C@]12CC(O)(C(C)C)ON1[C@H]1CCCCC1N2O (stereo partly specified)
  A: 0.5%; B: 3.0; C: 10; D: 9%; E: u; F: -4; G: 13%
CC1CCN(C(=O)Cn2ncc3c([nH]c4ccccc43)c2=O)CC1
  A: 3.9%; B: -0.7; C: 6; D: -6%; E: u; F: -5; G: 11%
Cc1cc(N/N=C/c2ccc(F)cc2)nc(-n2nc(C)cc2C)n1
  A: x; B: 0.3; C: 13; D: 1%; E: 2%; F: -9; G: 13%
O=C(NC(=S)NCc1ccccc1)c1ccc2c(c1)OCO2
  A: 1.6%; B: 0.3; C: -19; D: -7%; E: -18%; F: 7; G: 3%
O=C(NC(Cc1ccccc1)C(=O)N1CCCCCC1)c1ccccc1 (stereo unspecified)
  A: 0.7%; B: x; C: -23; D: -5%; E: 16%; F: -4; G: 2%
COc1ccc(NC(=O)CN2C(=O)NC3(CCCC3)C2=O)cc1
  A: x; B: -0.3; C: 1; D: 9%; E: -3%; F: -11; G: -1%
O=C(CN(C1CCCCC1)S(=O)(=O)c1ccc(Cl)cc1)NCCCO
  A: -0.6%; B: 0.3; C: -11; D: 3%; E: 21%; F: 6; G: 12%
Cc1cc(NS(=O)(=O)c2ccc(NC(=O)COc3ccc(Cl)cc3)cc2)no1
  A: 0.7%; B: 5.1; C: u; D: -9%; E: 0%; F: 7; G: 18%
Cc1c(NC2=C(Cl)C(=O)N(c3ccccc3)C2=O)c(=O)n(-c2ccccc2)n1C
  A: 0.5%; B: 1.8; C: -14; D: 1%; E: -16%; F: -10; G: u
CCCc1nn2c(=O)cc(COc3cccc(NC(=O)c4ccco4)c3)nc2s1
  A: -2.0%; B: x; C: 6; D: -11%; E: u; F: 0; G: 18%
COc1ccccc1CNC(=O)CSc1nc2ccccc2c(=O)n1CCCN1CCOCC1
  A: x; B: 0.0; C: -27; D: -17%; E: 16%[15.4 µM]; F: -17; G: 11%
CCn1cc(S(=O)(=O)CC(=O)Nc2ccc3c(c2)OCCO3)c2ccccc21
  A: 0.1%; B: 4.3; C: 12; D: 0%; E: -13%; F: 53*; G: 4%
CC(=O)OCC1(C)CN(c2ccccc2)NC1=O (stereo unspecified)
  A: -1.2%; B: -1.5; C: -3; D: 5%; E: -15%; F: -7; G: -46%
CCOC(=O)NNS(=O)(=O)c1cc(Br)ccc1Br
  A: x; B: -2.0; C: -4; D: 8%; E: u; F: -2; G: 3%
CCO[C@@H]1OC(C(=O)Nc2ccccc2)=C[C@H](c2ccc3c(c2)OCO3)[C@H]1CCCO
  A: -0.2%; B: 1.7; C: -5; D: -13%; E: x; F: -3; G: 1%
COc1ccccc1C1CCN(c2cc(O)ccc2[N+](=O)[O-])CC1
  A: x; B: 3.3; C: -4; D: 32µM*; E: -6%[15.4 µM]; F: -11; G: 4%
Cc1n[nH]c(C)c1CCN(C)Cc1cn(C)nc1-c1ccc2c(c1)OCCO2
  A: -1.3%; B: 2.4; C: u; D: 20%; E: 59%; F: -5; G: 15%
CC(C)(C)S(=O)(=O)c1c(C(=O)O)cccc1C(=O)O
  A: -0.8%; B: 0.5; C: 7; D: 1%; E: -14%; F: 7; G: 2%
COc1ccc(CCN2CC(C(=O)N3CCC(O)(c4ccccc4)CC3)CCC2=O)cc1 (stereo unspecified)
  A: 0.6%; B: x; C: 3; D: 11%; E: 3%; F: 0; G: 10%
Cc1cc(C)n(-c2nnc(NC(C)(C)C)nn2)n1
  A: -2.6%; B: -1.3; C: 5; D: 11%; E: 0%; F: 9; G: 12%
COc1ccccc1N1CCN(C(=O)/C=C/c2cccc([N+](=O)[O-])c2)CC1
  A: x; B: -3.4; C: x; D: -14%; E: 0%[15.4 µM]; F: -5; G: -1%
Cc1nn(-c2ccc(F)cc2)c(Cl)c1/C=C(/CCC(=O)O)c1nc2ccccc2s1
  A: -0.1%; B: x; C: x; D: -1%; E: -4%[15.4 µM]; F: 12; G: x
NNC(=O)C(=O)Nc1ccc(Cl)c(Cl)c1
  A: x; B: -6.2; C: 5; D: 7%; E: -25%[15.4 µM]; F: 3; G: 2%
CC(C)c1[nH]nc2c1C(Cc1ccccc1)C(C#N)=C(N)O2 (stereo unspecified)
  A: -3.4%; B: 2.7; C: 1; D: -9%; E: 0%; F: 0; G: -3%
COc1cc(C(=O)NCC2(c3ccccc3)CCCC2)cc(OC)c1OC
  A: 2.3%; B: 11; C: -19; D: -8%; E: -22%; F: -11; G: 3%
COc1ccc(NCC(=O)Nc2ccc(Br)cc2F)c(OC)c1
  A: x; B: -2.1; C: 8; D: -4%; E: -3%[15.4 µM]; F: -3; G: -16%
O=[N+]([O-])c1ccc(Oc2ccc(OCc3ccccc3)cc2)nc1
  A: x; B: -4.1; C: 3; D: 0%; E: -8%; F: -3; G: -7%
Cc1cc(/C=N\NC(=O)c2cccs2)c(C)n1-c1ccc2ncccc2c1
  A: -3.2%; B: 5.2; C: -1; D: 40µM*; E: 26%; F: -3; G: -18%
O=C1Nc2ccccc2C(O)(C(=O)NCc2ccco2)N1c1ccc(Cl)cc1 (stereo unspecified)
  A: 3.1%; B: -4.7; C: 5; D: -12%; E: -2%; F: -16; G: 15%
COC(=O)[C@@]1(Cc2ccccc2)[C@H]2c3cc(C(=O)N4CCCC4)n(CCSCCO)c3C[C@H]2CN1C(=O)c1ccccc1
  A: x; B: -0.7&-4.7; C: 11; D: x; E: x; F: x; G: -8%&1%
CC1=C(C#N)C(NC(=O)C2CC2)(C(F)(F)F)C(=O)N1 (stereo unspecified)
  A: 4.0%; B: -1.6; C: 10; D: 15%; E: -11%; F: 12; G: -5%
Cc1cccc(C)c1NC(=O)CN(c1ccccn1)S(=O)(=O)c1ccccc1
  A: x; B: -0.2; C: 9; D: 7%; E: -20%; F: 3; G: 7%
Cn1ncc(Br)c1C(=O)NC1CCCCCC1
  A: 0.3%; B: x; C: -12; D: -6%; E: -1%; F: -5; G: 8%
CC(C)CCNC(=O)c1c(CSc2ccccc2)noc1C(=O)NCc1ccccc1
  A: -0.9%; B: 1.4; C: u; D: 0%; E: 28%; F: -1; G: 0%
CC(C)(C)c1csc(NC(=O)Cn2cnc3ccccc3c2=O)n1
  A: -0.3%; B: 2.4; C: 12; D: -12%; E: -1%; F: 17; G: 20µM*
CCOc1ccc(NC(=O)CN(C)C(=O)c2ccc(N3CCCC3)c([N+](=O)[O-])c2)cc1OCC
  A: -1.2%; B: x; C: -4; D: 0%; E: -5%[15.4 µM]; F: -22; G: x
CC(C)(C)c1ccc(S(=O)(=O)NCc2ccc(C(=O)NCc3ccccn3)cc2)cc1
  A: -3.7%; B: 0.7; C: u; D: -5%; E: 6%; F: 9; G: 2%
Cc1ccc(C(=O)NCCCNC(=O)c2cccnc2)cc1
  A: x; B: 3.3; C: 15; D: 13%; E: u; F: -12; G: 5%

Grouped by structure, the compounds so far with a COOH group.
Short keys: A = ClpP mod; B = Menin MLL FP FL; C = TRPV1 potentiator; D = gsp antagonist; E = gsp ag; F = D2 PAM; G = Sfp inh
CC(C)(C)S(=O)(=O)c1c(C(=O)O)cccc1C(=O)O
  A: -0.8%; B: 0.5; C: 7; D: 1%; E: -14%; F: 7; G: 2%
Cc1nn(-c2ccc(F)cc2)c(Cl)c1/C=C(/CCC(=O)O)c1nc2ccccc2s1
  A: -0.1%; B: x; C: x; D: -1%; E: -4%[15.4 µM]; F: 12; G: x
